# Source: PubChem (several laboratories)
# T cruzi inh – T. cruzi replication inhibition. T. cruzi beta-gal in NIH3T3, luminescence, 90 h. inhibition, % (no concentration beside the values). actives 1.4% (n = 300,000). AID 1885;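 active = mean inhibition across valid replicates above about 55%, limit read from the data; inconclusive = mean below that limit but half or more replicates reach it; inactive = mean below it, under half of replicates reach it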;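 also: signal also drops with host cell toxicity which is not excluded here; 0% = plate median of DMSO wells and 100% = zero luminescence signal; higher percent means less beta-gal luminescence so fewer parasites; stock transfer was 50 nL into about 50 µL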
# ALR H2O2 inh – blocks human ALR sulfhydryl oxidase activity. P55789. purified ALR, DTT oxidation, H2O2 HRP-luminol luminescence. inhibition, % (no concentration beside the values). actives 3.8% (n = 290,000). AID 485317;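 active = mean and each replicate at 75% or more; inconclusive = only one of the two met; inactive = neither met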;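 also: stock transfer was 7.5 nL into about 7.5 µL; 0% = neutral wells and 100% = wells with inactivated enzyme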
# Target sequence (P55789 whole entry, looked up): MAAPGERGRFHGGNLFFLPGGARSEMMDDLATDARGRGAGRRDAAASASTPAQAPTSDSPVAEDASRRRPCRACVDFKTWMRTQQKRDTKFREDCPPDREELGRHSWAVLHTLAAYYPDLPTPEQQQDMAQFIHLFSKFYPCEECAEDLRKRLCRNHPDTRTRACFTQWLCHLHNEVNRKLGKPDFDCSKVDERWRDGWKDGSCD
# LANA-H2A inh – blocks KSHV LANA binding to histone H2A/H2B. Q9QR71. cell-free LANA-H2A/H2B peptide, fluorescence polarization. inhibition, % (no concentration beside the values). actives 0.6% (n = 320,000). AID 2629; in the data active = inhibition mostly above about 10%, no sharp cut-off; inactive = mostly below about 6.7%;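 also: stock transfer was 7.5 nL into about 10 µL; 0% = median of vehicle wells and 100% = median of positive control wells; one replicate is shown; the record names a cut of 25% in any replicate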
# Bfl-1 A1 inh – inhibitors of the anti-apoptotic protein A1, read as caspase activation; MEF A1-2A-BIM cells, Caspase-Glo 3/7 luminescence, 3 h; percent of clofoctol response, vehicle zero; caspase activation, % (test concentration not listed); actives 0.066% (n = 330,000); AID 2462;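 active = over half of replicate activation scores above 10%, or exactly half above 10 with the replicate mean above 10; inconclusive = replicate mean below 10 yet half the replicates above 10; inactive = over half of replicates below 10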;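 also: wells of about 30 µL received 50 nL stock; many hits fall short of the cut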
# rRNA inh HTS – inhibits bacterial ribosomal RNA function over humanized ribosomes; actives 1.6% (n = 350,000); GFP signal change (wild-type ribosome), % (test concentration not listed); AID 720706; E. coli WT GFP vs humanized-ribosome RFP mutants, fluorescence, 24 h; hits give low values; DMSO median 0, no signal -100;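 active = significant combined selectivity score with lowered wild-type GFP, culture density cut under 30%, mutant RFP and density less affected; inactive = any of these conditions unmet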; also: one replicate is shown; some compounds called inactive have numbers as strong as hits
# Beta cell apopt – blocks beta cell apoptosis | protection from apoptosis, % (test concentration not listed) | INS-1E cytokine-induced death, ATP luminescence, 48 h; percent of positive-control rescue, neutral wells zero | actives 0.8% (n = 300,000);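 active = all replicates at 75% or more, or half of them and the mean; inconclusive = half reach 75% but not the mean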;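 also: 0% = cytokine-treated negative control wells and 100% = positive control rescue; higher means more ATP so stronger rescue from cytokine killing; wells of about 40 µL received 100 nL stock; the first replicate is given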
# Calb FLC – affects C. albicans growth with fluconazole. AID 1979. actives 0.57% (n = 300,000). C. albicans CaCi-2 (fluconazole-resistant clinical isolate) + fluconazole, Alamar Blue growth, 48 h. growth inhibition, % (no concentration beside the values);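 active = most replicates above 75%; inconclusive = exactly half above 75%; inactive = most below 75%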;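 also: all wells also contain fluconazole at 8 µg/ml as a sub-toxic cotreatment; 0% = median of DMSO wells and 100% = median of geldanamycin control wells; wells of about 8 µL received 7.5 nL stock; the first replicate is given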
# Beta2AR agonist – activates human beta-2 adrenergic receptor causing internalization. response, % (concentration not given with the values). Am2.2-beta2AR cells, FAP receptor internalization, flow cytometry; reference of the scale not given here. AID 504454. actives 0.43% (n = 340,000);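 active = response above a set limit, near 3 SD of response in nonfluorescent compounds, cut at about 42% in these data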;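 also: stock transfer was 100 nL into about 11 µL; a reference agonist was the positive control; negative values mostly stem from fluorescent compounds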
# Target sequence (P07550 whole entry, looked up): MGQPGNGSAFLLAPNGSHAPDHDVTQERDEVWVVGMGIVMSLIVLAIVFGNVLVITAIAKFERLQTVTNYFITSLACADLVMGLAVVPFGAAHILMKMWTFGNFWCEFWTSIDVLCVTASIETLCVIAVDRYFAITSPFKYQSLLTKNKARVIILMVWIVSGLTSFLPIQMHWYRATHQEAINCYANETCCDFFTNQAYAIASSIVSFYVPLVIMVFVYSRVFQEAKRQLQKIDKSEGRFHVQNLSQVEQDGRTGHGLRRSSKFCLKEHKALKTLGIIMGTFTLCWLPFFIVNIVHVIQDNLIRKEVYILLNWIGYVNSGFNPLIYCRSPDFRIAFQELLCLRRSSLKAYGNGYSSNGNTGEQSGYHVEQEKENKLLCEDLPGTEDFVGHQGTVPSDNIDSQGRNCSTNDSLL
# rRNA inh HTS OD600 – second read-out of rRNA inh HTS, no call of its own (marks repeat the call); OD600 change, %; measured here: OD600 growth;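 optical density of the mix in the first replicate; 0 = DMSO median and -100 = no signal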
# rRNA inh HTS RFP – also measured in rRNA inh HTS; calls as there; RFP signal change, %; measured here: RFP humanized mutant strains;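 first replicate; 0 = DMSO median and -100 = no signal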
# Numbers without * were called inactive; ? = inconclusive; . = no result given. This is a subset; rates above refer to the full screens.
# Second line of a record – T cruzi inh, ALR H2O2 inh, LANA-H2A inh, Bfl-1 A1 inh, rRNA inh HTS, rRNA inh HTS OD600, rRNA inh HTS RFP, Beta cell apopt, Calb FLC, Beta2AR agonist
CC(C)(C)c1ccccc1NC(=O)Cn1cnc2cc([N+](=O)[O-])ccc2c1=O
  54, -21, -0.9, -0.3, 11, 10, 3.5, -4, 9, 3
CC(=O)NC1=NN(C(C)=O)C(C)(CS(=O)(=O)c2ccc(Cl)cc2)S1 (stereo unspecified)
  2, -3, 2.2, 1.0, ., ., ., 2, -2, -3
COc1ccc2sc(N(CCCN(C)C)C(=O)c3nc4ccccc4s3)nc2c1
  43, -6, 7.8, -0.7, 9, -1, -2.5, 9, -3, -1
O=C1CCC(C(=O)N2CCC(O)CC2)CN1CCc1ccc(Cl)cc1 (stereo unspecified)
  1, -2, -4.9, 0.3, 8, 12, -0.7, -1, 16, 5
O=C(CSc1nc(=O)n(CCCN2CCOCC2)c2c1CCC2)Nc1ccc(F)cc1F
  3, -10, 0.9, 2.9, 3, -3, 1.4, -4, -1, 0
CCOc1ccc(Nc2nc(-c3sc(N)nc3C)cs2)cc1
  -18, -26, -1.3, 1.0, 8, 9, 9.5, -25, -2, 11
Cc1cc(F)ccc1S(=O)(=O)Nc1ccccc1C(=O)Nc1ccc2[nH]c(=O)[nH]c2c1
  -7, ., -0.8, 0.1, ., ., ., -9, 14, -3
O=c1cc2c(n[nH]1)CCCC2
  -14, 0, 0.4, 0.4, ., ., ., 0, -1, 3
CC1=C(C(=O)OCc2ccc3c(c2)OCO3)C(c2cccc([N+](=O)[O-])c2)NC(=O)N1 (stereo unspecified)
  2, 5, 4.6, -0.5, 14, 14, 2.2, -1, -15, -7
Cc1cccc2sc(NC(=O)CN3C(=O)C4CC=CCC4C3=O)nc12 (stereo unspecified)
  -8, 0, -2.3, -0.2, 5, 5, -0.1, 0, -5, 3

# Another view of part of the listing above.
compound | T cruzi inh | ALR H2O2 inh | LANA-H2A inh | Bfl-1 A1 inh | rRNA inh HTS | rRNA inh HTS OD600 | rRNA inh HTS RFP | Beta cell apopt | Calb FLC | Beta2AR agonist
O=C(CSc1nc(=O)n(CCCN2CCOCC2)c2c1CCC2)Nc1ccc(F)cc1F | 3 | -10 | 0.9 | 2.9 | 3 | -3 | 1.4 | -4 | -1 | 0
CCOc1ccc(Nc2nc(-c3sc(N)nc3C)cs2)cc1 | -18 | -26 | -1.3 | 1.0 | 8 | 9 | 9.5 | -25 | -2 | 11

# Going on with the list:
# Second line of a record – T cruzi inh, ALR H2O2 inh, LANA-H2A inh, Bfl-1 A1 inh, rRNA inh HTS, rRNA inh HTS OD600, rRNA inh HTS RFP, Beta cell apopt, Calb FLC, Beta2AR agonist
Cc1ccc(S(=O)(=O)N2CCN(C(=O)Cc3ccc4c(c3)OCCO4)CC2)cc1C
  -3, -2, 0.3, -0.3, ., ., ., -3, 0, -11
C/C(=N/NC(=O)CN1CCN(S(=O)(=O)c2ccc(C)cc2)CC1)c1ccco1
  5, -4, 0.3, -0.4, 3, -1, 0.3, -26, -2, -3
CCc1nnc(NS(=O)(=O)c2ccc(NC(=S)NC(=O)c3cccnc3)cc2)s1
  -5, 31, 0.7, 0.5, -2, -14, -0.1, -4, 13, 26
COc1ccc(N(CC(=O)Nc2cc(Cl)ccc2OC)S(=O)(=O)c2c(C)[nH]c(=O)[nH]c2=O)cc1
  6, -6, 1.0, -1.4, -8, -28, -2.3, -5, ?, 0
C/C(=N/Nc1ccc([N+](=O)[O-])cc1)c1ccc(C)cc1C
  43, 98*, 1.5, 0.3, -10, -9, -6.1, 12, -25, 11
COc1ccc(CCNC(=S)NCc2cccs2)cc1OC
  0, -13, -5.4, 1.0, -14, -19, 6.9, -2, 17, -5
Cc1cccc(CNC(=O)c2cc(S(=O)(=O)N3CCOCC3)cn2C)c1
  2, -3, 4.9, -0.7, 0, 7, 1.4, -6, 16, 3
C=CCNC(=O)c1ccc(OC)cc1OC
  -3, ., -0.4, 0.1, ., ., ., 0, 3, 2
Cc1[nH]nc(Sc2ccccn2)c1[N+](=O)[O-]
  -13, ., ., 0.3, ., ., ., 0, 12, 10
C[C@H](C[C@H](O)[C@H]1OC1(C)C)C1=C2C[C@H](O)C3[C@@]4(C)CCC(=O)C(C)(C)C4CC[C@]3(C)[C@@]2(C)CC1 (stereo partly specified)
  ., -15, -1.2, -0.9, -5, -27, 0.1, 22, ., 4

# With a hit mark in ALR H2O2 inh, among the entries above:
Compound | ALR H2O2 inh | LANA-H2A inh | rRNA inh HTS | rRNA inh HTS OD600 | rRNA inh HTS RFP | Beta2AR agonist
C/C(=N/Nc1ccc([N+](=O)[O-])cc1)c1ccc(C)cc1C | 98* | 1.5 | -10 | -9 | -6.1 | 11

# Additional results follow:
# Second line of a record – T cruzi inh, ALR H2O2 inh, LANA-H2A inh, Bfl-1 A1 inh, rRNA inh HTS, rRNA inh HTS OD600, rRNA inh HTS RFP, Beta cell apopt, Calb FLC, Beta2AR agonist
Cc1cc(=O)oc2cc(OCC(=O)N3CCN(c4ccc(F)cc4)CC3)ccc12
  -9, -1, 0.1, -0.3, 1, -2, -0.5, ., -8, -1
Cc1cc(NC(=O)CSc2nc3cc(Cl)ccc3s2)no1
  -3, -9, -5.7, 0.2, ., ., ., -4, -3, 2
Cc1cc(C)c(S(=O)(=O)n2cc(C(C)C(N)C(=O)O)c3ccccc32)c(C)c1 (stereo unspecified)
  -6, -8, 1.4, -0.3, 7, 11, -3.7, 6, 7, 3
COc1ccccc1N1CCN(CCN2C(=O)CC(=C3c4ccccc4-c4ccccc43)C2=O)CC1
  3, -8, 3.8, 0.6, ., ., ., ., 9, .
CCN1CCN(C(=O)C2CCC(=O)N(CCCN3CCCC3=O)C2)CC1 (stereo unspecified)
  -6, -2, -7.0, 0.4, 0, -3, -1.2, -8, -4, -1
Cc1cc(C)nc(NS(=O)(=O)c2ccc(NC(=O)C3(c4ccccc4)CCCC3)cc2)n1
  6, -17, -3.9, 0.3, ., ., ., -7, -11, 1
Cc1c(N=C(N)/N=C(\N)Nc2ccc(Br)cc2)c(=O)n(-c2ccccc2)n1C
  2, -3, 0.9, 0.1, 2, 3, 2.5, 3, 4, -3
COc1ccc(S(=O)(=O)N2CC(=O)Nc3ccccc32)cc1Cl
  -7, -16, 1.6, 2.4, -33*, -23*, -3.2*, -1, -11, 11
O=C1CCN(C(=O)c2ccc(Cl)cc2)N1
  -9, -2, 2.3, -0.7, 21, 11, 0.3, -7, -6, 3
CC(=O)Nc1cccc(NC(=O)CSc2nnc(NC(=O)C3CC3)s2)c1
  -13, -6, -2.0, -0.1, -6, 2, 0.4, -5, -2, -5
O=C(NCCCn1ccnc1)/C(=C\c1ccc(Br)cc1)NC(=O)c1ccccc1F
  -7, -15, 1.8, 0.5, ., ., ., -1, -3, -2
O=C(Nn1c(C2CCC2)nc2ccccc2c1=O)C1CCC1
  30, 0, 1.9, -0.4, ., ., ., -3, -19, 1
O=C(c1noc2c1CCCC2)N1CCN(c2ccc(F)cc2)CC1
  6, 5, -1.1, -0.7, 8, 3, -7.3, -2, -16, 13
Fc1ccc(-n2c(-c3cc(C4CC4)[nH]n3)n[nH]c2=S)cc1Cl
  13, ?, -3.2, 0.8, -18, -13, -8.8, 3, 17, 12
COc1ccc(CC2(CO)CCN(Cc3nc(C(C)C)cs3)CC2)cc1
  68*, -9, 0.2, -0.5, -10, -3, -4.3, 4, -3, 2
CN1CCN(C(=O)c2cc3cc(Cl)ccc3[nH]2)CC1
  38, ., 1.8, -0.5, -5, -2, -1.6, -9, 3, -4
NC(=O)C1CCN(C(=O)c2ccc3c(=O)n(Cc4ccco4)c(SCc4ccc([N+](=O)[O-])cc4)nc3c2)CC1
  6, -4, 3.5, 0.7, 5, 9, -1.7, 7, 29, 13
Cc1ccccc1CS(=O)(=O)c1cn(CC(=O)N2CCC(C)CC2)c2ccccc12
  -4, -6, 0.5, 0.9, ., ., ., 13, 4, 0
CC(=O)c1ccc(NC(=O)C2CCN(S(=O)(=O)c3cccnc3)CC2)cc1
  -6, 2, -3.3, -1.1, -4, 4, 4.5, -2, -9, -3
CC1CCCCN1C(=O)Nc1cccc(Cl)c1 (stereo unspecified)
  -10, -11, -2.7, 0.7, ., ., ., -7, -12, 7
Cc1ccccc1NC(=O)COC(=O)Cc1ccsc1
  -28, -20, 0.2, 0.3, 20, 18, 2.6, -2, -8, 16
Cc1cc(C)c(C)c(S(=O)(=O)N2CCC(C(=O)N3CCCCCCC3)CC2)c1C
  21, -19, -3.8, 0.5, ., ., ., 0, -5, 5
C/C=C/C(=O)OCC(=O)Nc1c(Cl)cccc1Cl
  13, -1, -1.2, 0.3, ., ., ., 0, -1, 0
CCOc1ccc(C2NC(=O)c3ccccc3O2)cc1 (stereo unspecified)
  -11, -4, -4.5, -0.4, ., ., ., -8, 8, -7
CN(C)S(=O)(=O)c1cccc(NC(=O)c2ccc3c(c2)S(=O)(=O)N=C2CCCCCN23)c1
  0, ., 1.8, 0.2, -20*, -6.5*, 4.7*, ., -5, 17
C/C(=N\OC(=O)c1ccc(C)cc1)c1c(C)nc2cc(C)ccn12
  -21, -6, -0.6, 0.5, 10, 4, -2.9, 3, -16, 8
C/C(=N\Nc1cc(C)nc(NCc2ccccc2)n1)c1cccc([N+](=O)[O-])c1
  19, -1, -3.0, 0.0, 11, 7, 2.0, 12, -37, 15
CN(C)C(CNC(=O)c1cc(S(=O)(=O)N(C)c2ccccc2)ccc1Cl)c1ccccc1 (stereo unspecified)
  16, -6, 9.6, 0.4, 8, 11, -1.5, -2, 0, -8
O=C(O)c1ccc(-c2sc(Nc3ccccc3)n[n+]2-c2ccccc2)cc1
  -14, 9, 1.8, -0.6, -5, 3, 6.4, -6, -13, -1
CN(C)c1nc(C(=O)Nc2ccccc2)nc(N(C)C)n1
  14, 8, 3.8, -0.5, ., ., ., 0, -3, -5
O=C(Nc1ccncc1)c1ccc(NS(=O)(=O)c2cccc(F)c2)cc1
  3, -6, 0.1, 0.3, 6, 3, 11, -1, 0, -1
O=C(O)CCNC(=O)CCCn1nnc2ccccc2c1=O
  5, 0, 92*, -0.1, 12, 3, -2.3, -4, 0, -7
CCc1ccccc1NC(=O)N1CCCC(CCC(=O)N(C)CCc2ccccn2)C1 (stereo unspecified)
  1, -3, 1.1, 0.0, 8, 6, 0.3, 1, -3, 1
O=C1CCc2cc(S(=O)(=O)N3CCC(C(=O)NC4CCCc5ccccc54)CC3)ccc2N1 (stereo unspecified)
  -1, -86, -0.7, 0.4, 7, 3, 1.7, -3, -1, -3
CC(C)(C)CC(=O)O/N=C(\N)c1ccccn1
  4, 4, -2.0, -5.7, ., ., ., -2, 2, -5
CC1CC(C)(C)CC(=O)C1C(=O)c1ccccc1 (stereo unspecified)
  -10, 9, 3.0, 0.4, 4, 5, -9.4, -3, -9, 0
C/C(Cn1cnc([N+](=O)[O-])n1)=N\NC(=O)c1ccccc1F
  75*, -18, -4.2, 0.4, ., ., ., -8, -3, -3
